Screening data: PubChem, several laboratories
GALR2 ag: activates the human galanin receptor 2 | AID 803 | hit rate 0.48% among 140,000 | GALR2-expressing cells, agonist activation read-out | activation, %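 (tested at 5 µM)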 | O43603;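 active = above mean plus 3 SD of all compounds, about 5% in these data, not always enough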;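 also: 0% = vehicle buffer wells and 100% = reference agonist at full effect; tested in CHO reporter cells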
RGS16-Gao: RGS16-Galphao interaction regulator (human); binding response (% of control), % at 10 µM; AID 1441; hit rate 0.38% among 220,000; O15492+P09471; bead-based flow cytometry RGS16-Galphao binding, fluorescence; actives lie on both sides;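 active = below 25% or above 175%, edge rows of some plates excepted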;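 also: Galphao activated by GDP with aluminum fluoride before binding; 100% = wells without compound and 0% = beads without RGS; some results beyond the cut were filed as inactive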
INS promoter inh: TRM-6 insulin promoter activity inhibition | inhibition, % at 2 µM | hit rate 0.9% among 130,000 | TRM-6 cells (human fetal islet line), insulin promoter-eGFP reporter, imaging; reporter expression induced with tamoxifen;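 active = inhibition above the mean plus 3 SD, with well images judged a real hit on visual review, cut at about 60% in these data, passing the limit was not always enough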
HSV augment: HSV replication enhancement; hit rate 0.005% among 220,000; AID 1956; maximum fold increase; HSV replication augmentation in cells, fold increase;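 active = peak rise of 1.5-fold or more in the series; tested in PC3 cells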;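 also: first round at 10 µM; read as green reporter fluorescence; hits show the peak of a series up to 25 µM; 1 = signal of infected wells without compound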
PKD1 inh: inhibitors of human PKD1 kinase; Q15139; hit rate 0.056% among 200,000; AID 797; inhibition, %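 (about 10 µM by stock and volumes)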; PKD1 kinase fluorescence polarization assay;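 active = inhibition of 50% or more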;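 also: controls were vehicle for no effect and a reference inhibitor for full effect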
Target sequence (Q15139 whole entry, looked up): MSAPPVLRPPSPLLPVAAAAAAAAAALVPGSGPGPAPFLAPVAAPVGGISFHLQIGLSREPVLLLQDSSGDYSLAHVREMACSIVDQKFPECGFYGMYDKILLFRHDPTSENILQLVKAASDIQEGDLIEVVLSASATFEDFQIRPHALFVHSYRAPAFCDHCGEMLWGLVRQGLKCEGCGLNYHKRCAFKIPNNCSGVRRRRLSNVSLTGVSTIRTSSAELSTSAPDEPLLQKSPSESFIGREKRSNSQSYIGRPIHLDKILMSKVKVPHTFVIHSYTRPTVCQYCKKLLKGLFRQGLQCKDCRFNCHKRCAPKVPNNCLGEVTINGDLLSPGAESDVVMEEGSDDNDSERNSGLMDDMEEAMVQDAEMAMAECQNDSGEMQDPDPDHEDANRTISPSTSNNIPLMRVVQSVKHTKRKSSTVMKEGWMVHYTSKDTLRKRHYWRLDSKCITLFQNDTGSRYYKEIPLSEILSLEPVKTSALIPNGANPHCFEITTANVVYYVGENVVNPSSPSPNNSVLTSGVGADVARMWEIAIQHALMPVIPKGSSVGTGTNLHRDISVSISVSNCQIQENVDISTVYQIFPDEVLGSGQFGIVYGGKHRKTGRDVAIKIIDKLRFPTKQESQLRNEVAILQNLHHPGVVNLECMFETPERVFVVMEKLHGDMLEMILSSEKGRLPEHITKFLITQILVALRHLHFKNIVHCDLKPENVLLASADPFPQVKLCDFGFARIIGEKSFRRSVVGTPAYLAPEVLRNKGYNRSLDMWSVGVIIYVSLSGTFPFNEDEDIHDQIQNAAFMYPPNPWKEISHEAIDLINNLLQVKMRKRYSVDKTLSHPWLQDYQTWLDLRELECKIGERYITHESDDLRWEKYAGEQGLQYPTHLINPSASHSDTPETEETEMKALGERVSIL
INS promoter inh cell count: also measured in INS promoter inh; calls as there; normalized cell count, %; measured here: cell count, toxicity; reference of the scale not given here;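 cells exposed to compound for 48 h; stained nuclei by imaging scaled within each plate; lower means fewer cells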
HSV augment primary fold: also measured in HSV augment; calls as there; fold increase; compound at 10 µM; measured here: primary screen fold increase 10 uM; tested in PC3 cells;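 GFP signal in the first replicate; 1 = infected wells without compound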
Starred values were filed as active, the others as inactive; i = inactive; . = no result given.

mol,GALR2 ag,RGS16-Gao,INS promoter inh,INS promoter inh cell count,HSV augment,HSV augment primary fold,PKD1 inh
Cc1onc(-c2c(Cl)cccc2Cl)c1C(=O)c1ccc(F)cc1,.,97,.,.,i,1.2,.
CCOC(=O)c1[nH]cnc1C(=O)NC(C)C,-3.5,145,59,115,i,0.92,4
COc1ccc(C(=O)/C=C/C(=O)N(CC(=O)NC2CCCCC2)CC2CCCO2)c(O)c1 (stereo not drawn),.,83,.,.,i,0.62,0
COc1cccc2cc(C(=O)N3CCN(C(=O)c4ccco4)CC3)c(=O)oc12,-1.8,100,-83,105,i,0.85,0
CSc1ccccc1C(=O)N1CCc2ccccc2C1,.,111,-67,87,i,1.1,-5
C/C(=N\S(=O)(=O)c1ccc(C)cc1)Nc1cc(C(C)C)c(O)cc1C,-3.2,109,38,50,i,1,8
COc1ccc(CN(C)C(c2ccccc2)c2nnnn2-c2ccccc2C)c(OC)c1C (stereo not drawn),-2.5,105,3,87,i,1.1,2
CCOc1c2ccc(C(=O)NCc3ccc(OC(F)(F)F)cc3)cc2nn1C,-2.0,105,.,.,i,0.8,-10
Cc1ccc(NC(=O)c2sc3nc[nH]c(=O)c3c2C)c(C)c1,-2.9,93,.,.,i,0.54,16
Cc1cc(NC(=O)CN2CCN(c3ccccc3O)CC2)no1,-4.3,100,-68,143,i,0.78,0
Cc1ccc(SCc2noc(C(=O)NC(C)C)c2C(=O)O)cc1C,-3.8,100,54,138,i,1.1,-5
CCOC(=O)c1c(NC(=O)CSc2nnc(-c3cccnc3)o2)sc(C(C)=O)c1C,-1.9,100,.,.,i,0.96,-5
O=C(NP(=O)(N1CCCC1)N1CCCC1)C1=C(N2CCOCC2)/C(=C/c2cccc([N+](=O)[O-])c2)CC1,.,101,.,.,i,1,-10
CC(C)Cn1c(N)c(C(=O)CSc2ccccc2)c(=O)n(C)c1=O,-0.8,90,-12,71,i,0.84,-2
COc1cc2c(cc1OC)C(C(=O)NC1CC1)C1c3ccccc3CCN1C2=O (stereo not drawn),1.0,.,.,.,i,0.96,-11
COc1ccc(NC(=S)NCCc2c(C)[nH]c3ccc(OC)cc23)cc1,.,109,-9,119,i,0.93,1
COc1ccc(CNC(=O)c2ccc(N3CCCC3=O)cc2)cc1,0.6,100,.,.,i,0.86,10
CC(C)COC(=O)c1cc(-c2ccc(/C=N/n3cnnc3)o2)ccc1Cl,-1.1,101,0,161,i,0.94,-10
Cc1ccccc1NC(=O)CC1c2ccccc2CC(C)(C)N1C (stereo not drawn),.,116,.,.,i,0.97,0
CCCNC(=O)COC(=O)c1[nH]c(C)c(C(=O)OCC)c1C,-1.4,105,0,140,i,0.94,2
Cc1ccc(NC(=O)c2ccccc2O)cc1,-1.4,95,-2,154,i,0.75,0
COc1ccc(C(c2nnnn2C2CCCC2)N2CCc3ccccc3C2)cc1OC (stereo not drawn),-2.0,112,-6,94,i,0.89,12
CC(C)Oc1ccc(C2CC(=O)N(c3ccccc3)C2=O)cc1 (stereo not drawn),-3.3,99,-41,114,i,0.7,-5
CCCNc1nc2c(c(=O)[nH]c(=O)n2C)n1CCC(C)C,-2.9,104,-3,86,i,0.94,-7
O=c1[nH]c2ccccc2n1CCCN1CCN(C(c2ccccc2)c2ccccc2)CC1,0.6,101,-19,114,i,0.53,6
COc1cccc(-n2c(SCC(=O)N3CCCCC3)nc3c([nH]c4ccccc43)c2=O)c1,.,102,.,.,.,.,2
Cc1c(NC(=O)C(C#N)=C2CCCCC2)c(=O)n(-c2ccccc2)n1C,-1.0,95,31,80,i,0.88,-6
Cc1ccc(C)c(-c2cc(C(=O)NNC(=S)NCC(C)C)c3ccccc3n2)c1,-1.0,107,.,.,i,0.91,-3
Cc1ccc(S(=O)(=O)n2cc(-c3ccccc3)c(N)n2)cc1,-3.6,105,36,101,i,0.97,1
CCC1Oc2ccc(C)cc2N(CC(=O)NCCCN2CCCCC2CC)C1=O (stereo not drawn),-0.6,104,-24,35,i,1,-4
CC1CCC2(CC1)OCC1(CCC3(COC4(CCC(C)CC4)OC3)C1=O)CO2 (stereo not drawn),.,104,22,87,i,0.96,-7
COc1cc(OC)c(-n2c(C)cc(C=O)c2C)cc1Cl,-1.6,96,0,56,i,1.1,1
COc1cc(C(=O)NCc2ccccc2)cc(Br)c1OC,0.2,106,-100,110,i,0.88,-9
COc1ccc(OC)c(S(=O)(=O)NC2CCN(Cc3ccccc3)CC2)c1,-0.7,103,-67,152,i,0.74,-8
c1ccc(OCc2nc(-c3cccs3)no2)cc1,-2.0,109,35,32,i,0.89,0
CC(C)[N+]1=C2C=CC=CC=C2SC12C([N+](=O)[O-])=CC(=[N+]([O-])[O-])C=C2[N+](=O)[O-] (stereo not drawn),.,98,.,.,i,0.96,.
C/C(=N/NC(=O)CNC(=O)c1ccncc1)c1ccco1,.,106,.,.,i,1.1,.
CCN1CSC(=S)N(Cc2ccc(OC)cc2)C1,.,100,.,.,i,1.1,.
CCC1=C(OC(=O)N(CC)CC)N2C(=O)OC(=NCc3ccccc3)[C@]2(C)[C@H]2C1=CC[C@H]1C(=O)N(CC(=O)OC)C(=O)[C@H]12,.,98,.,.,i,1,.
COC(=O)c1c(C(=O)OC)c2n(c1C)Cc1ccccc1C2,-1.3,102,-16,91,i,0.84,-11
CCOC(=O)c1sc2ccccc2c1NC(=O)c1coc2ccccc2c1=O,0.2,105,-2,125,i,0.94,-3
O=C(NNC(=O)C1[C@H]2CCCC[C@@H]12)c1ccc(=O)oc1 (stereo partly drawn),.,83,.,.,i,1.1,.
O=C(CCNC(=O)c1ccc(Br)o1)NCc1ccc(Cl)cc1,-2.1,117,.,.,i,1.1,-4
CCN1CCN(C(=S)Nc2ccc(Cl)cc2Cl)CC1,-0.9,106,-3,99,i,0.97,0
O=C(COc1ccc(Br)cc1)N1CCC(c2ccccc2)C1 (stereo not drawn),-1.6,95,-26,57,i,0.88,-5
COc1ccc(NS(=O)(=O)c2ccc(N3CCOCC3)c(NC(=O)c3ccc(OC)cc3)c2)cc1,-1.3,110,-69,99,i,0.97,-11
CCN(CC)CCn1c(NCc2cccc(OC)c2)nc2ccccc21,-0.6,101,14,61,i,0.67,-2
Cc1cc(Cl)ccc1NC(=S)NCc1ccc(Cl)cc1,-1.2,100,4,69,i,1,-2
COC(=O)CCC(=O)NNC(=O)CCC(=O)Nc1cccc(Cl)c1C,.,103,.,.,i,1.1,-5
C/C(=N\Nc1cc(Cl)nc(C)n1)c1ccc(Cl)c(Cl)c1,-2.8,88,.,.,i,0.84,-2

Grouped by structure: the entries above containing bromine
mol,GALR2 ag,RGS16-Gao,INS promoter inh,INS promoter inh cell count,HSV augment,HSV augment primary fold,PKD1 inh
COc1cc(C(=O)NCc2ccccc2)cc(Br)c1OC,0.2,106,-100,110,i,0.88,-9
O=C(CCNC(=O)c1ccc(Br)o1)NCc1ccc(Cl)cc1,-2.1,117,.,.,i,1.1,-4
O=C(COc1ccc(Br)cc1)N1CCC(c2ccccc2)C1 (stereo not drawn),-1.6,95,-26,57,i,0.88,-5

(cont.)
mol,GALR2 ag,RGS16-Gao,INS promoter inh,INS promoter inh cell count,HSV augment,HSV augment primary fold,PKD1 inh
Cc1cc(C)nc(SCC(=O)Nc2ccc(S(=O)(=O)NC(C)(C)C)cc2)n1,1.7,108,-17,103,i,0.99,3
COc1cc(Nc2ncnc(N)n2)cc(OC)c1OC,.,101,.,.,i,0.97,.
O=S(=O)(NCc1cccnc1)c1ccc(Cl)nc1,-1.2,101,13,57,i,0.96,-5
CC12CCC(C(=O)N(NC(=O)c3ccccc3Cl)C1=O)C2(C)C (stereo not drawn),-0.2,103,-42,71,i,1.2,-5
CCC1Oc2ccc(C)cc2N(CC(=O)NCCCN2CCN(Cc3ccccc3)CC2)C1=O (stereo not drawn),-0.6,101,-28,94,i,0.95,-3
COc1ccccc1C1SCCN1S(=O)(=O)c1cccc(C(F)(F)F)c1 (stereo not drawn),-3.5,87,-3,105,i,0.97,0
O=C(Nc1c(C(=O)N2CCCCC2)cnn1-c1ccccc1)c1ccco1,-3.7,99,-53,130,i,0.9,-12
COc1ccc(N(CCCN2C(=O)c3cccc4cccc(c34)C2=O)C(=O)c2cccs2)cc1,-0.1,123,17,141,i,0.91,-8
Cc1ccc(N(C)S(=O)(=O)c2ccc(C)cc2)cc1,-1.3,100,0,59,i,1.1,-5
CCc1cc2c(=O)c(-c3nc4ccccc4n3C)c(COCC(=O)O)oc2cc1OC(=O)C(C)(C)C,-1.2,102,12,98,i,0.77,3
Cc1cc(-c2ccccc2)n2ncc(-c3ccccc3)c2n1,0.2,99,10,106,i,0.99,10
Cc1cccc(Cn2c(NCC(C)O)nc3c2c(=O)n(C)c(=O)n3C)c1 (stereo not drawn),-2.7,105,67,122,i,0.97,-9
Cc1ccc(C(C)NC(=O)C23CC4CC(CC(C4)C2)C3)cc1 (stereo not drawn),.,103,0,105,i,1,-3
Cc1ccc(OCCSc2nnc(-c3cccs3)n2C)cc1,-0.1,106,48,99,i,0.96,-1
O=C1CC(c2ccccc2F)c2c(c3ccccc3[nH]c2=O)O1 (stereo not drawn),.,100,.,.,i,0.89,.
O=C(Cn1c(=O)c(=O)n(Cc2ccccc2)c2ccc(Cl)cc21)Nc1cc(F)ccc1F,.,99,.,.,i,1,-3
Cc1ccc(CNC(=O)c2nnc(Cc3ccc(Cl)cc3)o2)cc1,.,98,.,.,i,0.91,.
COc1ccc(CCn2c(Br)nc3c2c(=O)[nH]c(=O)n3C)cc1,-1.8,67,-20,60,i,1.1,-4
Cc1cc(=O)oc2cc(OCC(=O)OCC(=O)N3CCc4ccccc43)ccc12,0.8,98,-22,85,i,1,-4
CCOC(=O)c1ccc(S(=O)(=O)N2CCN(C(=O)c3nn(C)c(=O)c4ccccc34)CC2)cc1,.,98,0,98,i,0.9,-7
O=C(O)CC(NC(=O)Cc1ccc(Cl)cc1)c1ccco1 (stereo not drawn),.,101,.,.,i,0.98,-3
Cc1ccc(-c2cc(C(=O)OC3CCOC3=O)c3ccccc3n2)c(C)c1 (stereo not drawn),.,99,.,.,i,0.95,-4
COc1ccccc1N1CCN(C(c2cccs2)C(C)NC(=O)c2ccncc2)CC1 (stereo not drawn),.,101,.,.,i,0.79,.
CC(C)Oc1cccc(-c2cc(C(=O)N3CCN(c4ncccn4)CC3)c3ccccc3n2)c1,-1.3,99,-238,122,i,0.72,-6
Cc1ccc(S(=O)(=O)Nc2ccc(S(=O)(=O)N3CCCC3)cc2)cc1,-0.1,101,.,.,i,1.1,17

Some of these compounds in order of heavy-atom count, smallest number first.
mol,GALR2 ag,RGS16-Gao,INS promoter inh,INS promoter inh cell count,HSV augment,HSV augment primary fold,PKD1 inh
Cc1ccc(SCc2noc(C(=O)NC(C)C)c2C(=O)O)cc1C,-3.8,100,54,138,i,1.1,-5
CCN(CC)CCn1c(NCc2cccc(OC)c2)nc2ccccc21,-0.6,101,14,61,i,0.67,-2
CCc1cc2c(=O)c(-c3nc4ccccc4n3C)c(COCC(=O)O)oc2cc1OC(=O)C(C)(C)C,-1.2,102,12,98,i,0.77,3

(more compounds)
mol,GALR2 ag,RGS16-Gao,INS promoter inh,INS promoter inh cell count,HSV augment,HSV augment primary fold,PKD1 inh
COC(=O)c1ccc(-c2nc3cc(Cl)c(N)cc3s2)cc1,6.2,105,-4,109,i,0.86,-10
CCC1CCCCN1C(=O)COC(=O)c1ccc(S(=O)(=O)N2CCOCC2)cc1 (stereo not drawn),-0.4,100,16,105,i,1.1,-4
CCn1c(CNC(=O)c2cccc(C)c2)nc2ccccc21,-1.7,110,.,.,i,0.9,2
COC(=O)c1cc(C(=O)OCC(=O)Nc2ccccc2OC(F)F)cc([N+](=O)[O-])c1,-0.3,104,-12,142,i,0.93,4
COc1cc(Cl)c(C)cc1NC(=O)CSc1nnc(-c2ccccn2)n1Cc1ccco1,-1.0,101,.,.,i,0.9,-17
N=c1c2c(-c3ccccc3)c(-c3ccccc3)n(Cc3ccco3)c2ncn1Cc1ccccc1,0.2,94,-4,85,i,0.94,5
Cc1nc2ccccc2c(=O)n1/N=C/c1ccc2ccccc2c1O,.,108,.,.,i,1.2,.
O=C1N/C(=C/c2cccs2)C(=O)N1Cc1ccc(Br)cc1,.,103,.,.,i,0.93,1
Cn1ncc(N=Cc2ccccc2O)c1C(=O)Nc1ccccc1,-1.7,90,.,.,i,0.98,-4
O=C(Nc1nc(-c2cccs2)cs1)c1ccc(S(=O)(=O)N2CCCC2)cc1,-0.8,107,20,186,i,1,2
CCC(NC(=O)CCc1ccccc1)c1ccccc1 (stereo not drawn),.,97,.,.,i,1,-1
